Bioassay records deposited in PubChem BioAssay by National Center for Advancing Translational Sciences (NCATS).
miR-21 FLuc: raises the signal of a miR-21 reporter; HeLa miR-21 FLuc reporter, luciferase, 48 h; Potency, µM (doses to about 38.3 µM), for the others: top-dose reporter change, positive = more light; 340,000 tested, under 10 active; AID 2288; active = well fitted rising curve with a large enough effect; inconclusive = small, poorly fitted or top-dose-only effect; inactive = no such curve, though single readings can be large or run the other way;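 note: % of control where 0% means no effect; miR-21 action dims this reporter so a rising signal means less miR-21 action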
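Compounds were titrated across several concentrations (up to approximately 40 uM) and incubated 48 hours with HeLa miR-21-FLuc reporter cells (miR-21 target sequence downstream of FLuc, endogenous miR-21). Readout was firefly luciferase luminescence after lytic detection reagent.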
An asterisk follows results filed as active; ? = inconclusive.

SMILES	miR-21 FLuc
Cc1ccc(S(=O)(=O)N2CCCc3cc(NC(=O)c4cccc(Cl)c4)ccc32)cc1	7%
Cc1cc(NC(=O)C2CCCN(S(=O)(=O)c3ccc(Br)s3)C2)ccc1Br (stereo not given)	28%
O=C(CSc1nc2c(c(=O)[nH]1)CCC2)Nc1ccccc1C(F)(F)F	-1%
CC(=O)Nc1nonc1-c1nnc(SCC(=O)Nc2ccc(F)cc2F)n1-c1ccccc1	-2%
Cc1ccccc1OCC(=O)Nc1ccc(-c2nc3ccccc3o2)cc1	-13%
CCOC(=O)C1CCCN(C(=O)Cn2ncc3c(C)n(Cc4ccccc4Cl)c(C)c3c2=O)C1 (stereo not given)	0%
CCOc1ccc(NC(=O)C2CCN(S(=O)(=O)c3cc(-c4noc(C)n4)ccc3C)CC2)cc1	5%
CCn1cc(C(=O)NCCc2ccc(OC)c(OC)c2)c(=O)c2cc(S(=O)(=O)N(C)C3CCCCC3)ccc21	22%
O=C(Nc1ccc2c(c1)N(C1CCCC1)C(=O)c1ccccc1S2)c1ccc(F)cc1	?
COc1ccc(CCNC(=O)CCCn2c(=O)c3cccn3c3ccc(F)cc32)cc1OC	-4%
Cc1cc(C)c2c(n1)nn1c(C)c(CCC(=O)Nc3ccc(C)c(Cl)c3)c(C)nc21	-6%
CCc1ccc(C(=O)COC(=O)C(Cc2c[nH]c3ccccc23)NC(=O)c2ccc(Br)cc2)cc1 (stereo not given)	-12%
O=c1n(Cc2ccc(F)cc2Cl)c2ccccc2c2nc(-c3ccccc3)nn12	5%
CCc1ccc(OCC(=O)NCc2nc(-c3cccc(C)c3)no2)c(Br)c1	-9%
Cc1cccc(CN2CCC(CNc3ncnc4onc(-c5ccc(Cl)cc5)c34)CC2)c1	-5%
O=C(CCc1nc(-c2ccccc2F)no1)Nc1cccc(C(F)(F)F)c1	3%
COc1ccccc1NC(=O)CSc1nc(-c2ccccc2F)nc2cc(=O)[nH]n12	-34%
COc1cc(C(CC(=O)Nc2ccc(F)cc2F)N2Cc3ccccc3C2=O)cc(OC)c1OC (stereo not given)	1%
CCc1cccc(NC(=O)CN(C)S(=O)(=O)c2ccc3[nH]c4c(c3c2)CCCC4)c1	7%
COc1ccc(CCNC(=O)c2ccc3c(c2)N(Cc2ccccc2C)C(=O)c2ccccc2S3)cc1OC	22%
COc1cc2c(cc1OC)C(COc1ccc3c(C)cc(=O)oc3c1)N(C(=O)Cc1ccccc1)CC2 (stereo not given)	-5%
O=C(NC1CC(=O)N(c2cccc(F)c2)C1)c1ccc(Br)o1 (stereo not given)	-3%
CC(=O)c1ccc(NC(=O)COc2ccccc2-c2nc(-c3ccccc3)no2)cc1	-1%
CCN(CC)C(=O)c1ccc2c(c1)N(Cc1c(F)cccc1Cl)C(=O)c1ccccc1S2	?
O=C(Nc1noc2ccccc12)c1cccc(Cl)c1Cl	-16%
Cc1ccc(-c2nsc(NC(=O)c3oc4cc(C)c(Cl)cc4c3C)n2)cc1	9%
Cc1ccc(Cn2cc(S(=O)(=O)c3cccc(C)c3)c(=O)c3cc(F)c(N4CCOCC4)cc32)cc1	-6%
c1ccc(CNc2nc3ccccc3c3nc(-c4ccccc4)nn23)cc1	-6%
CC(=O)Nc1ccc2nc(SCc3ccccc3)sc2c1	-52%
O=C(Nc1ccc2oc(-c3cccc4c(Br)cccc34)nc2c1)c1cccc(Cl)c1	0%
COc1ccc(C(=O)c2cn(Cc3ccc(F)cc3)c3ccc(C)cc3c2=O)cc1	?
CCOc1ccc(C2C(=O)N(C3CCCCCC3)CC(=O)N2CCC2=CCCCC2)cc1OC (stereo not given)	1%
CCC(=O)N1CCc2cc(Br)cc(S(=O)(=O)N3CCCC(C(=O)NCc4ccc(F)cc4)C3)c21 (stereo not given)	1%
CC1CCCN(c2cc3c(cc2F)c(=O)c(S(=O)(=O)c2cccc(Cl)c2)cn3Cc2ccccc2)C1 (stereo not given)	1%
COc1ccc(-n2nc3ccc(NC(=O)c4ccc(-c5cc(Cl)ccc5Cl)o4)cc3n2)cc1	-14%
CCCSc1oc(-c2ccco2)nc1S(=O)(=O)c1ccc(Br)cc1	8%
Cc1ccc(CNS(=O)(=O)c2c(C)nc3sc(C)cn3c2=O)cc1	-3%
COc1ccccc1NC(=O)N(Cc1ccco1)C1CCN(C(C)=O)CC1	-1%
CC1=C(c2ccc(Cl)cc2)S(=O)(=O)N=C1N1CCC(C(=O)NCCc2ccco2)CC1	3%
Cc1ccccc1CCNC(=O)C1CCN(S(=O)(=O)c2ccc3c(ccn3C)c2)CC1	4%
Cc1ccc(Nc2nc(-c3ccccc3)nc3ccccc23)cc1	1%
CCN1CCC(N(Cc2ccc3c(c2)OCO3)C(=O)Nc2ccc(Br)c(C)c2)CC1	-14%
COc1ccc(-n2cc(-c3ccccc3)c3c(N4CCCC(C)C4)ncnc32)cc1 (stereo not given)	9%
CCOC(=O)c1ccccc1NC(=O)CSc1cn(CC(=O)N2CCCCC2)c2ccccc12	3%
COc1ccc(NC(=O)Cn2cnc3c(oc4ccccc43)c2=O)cc1OC	-5%

4 of the entries above in order of the miR-21 FLuc value, descending.
Molecule | miR-21 FLuc
COc1ccc(-n2cc(-c3ccccc3)c3c(N4CCCC(C)C4)ncnc32)cc1 (stereo not given) | 9%
CCCSc1oc(-c2ccco2)nc1S(=O)(=O)c1ccc(Br)cc1 | 8%
CC1=C(c2ccc(Cl)cc2)S(=O)(=O)N=C1N1CCC(C(=O)NCCc2ccco2)CC1 | 3%
COc1ccccc1NC(=O)N(Cc1ccco1)C1CCN(C(C)=O)CC1 | -1%

(cont.)
SMILES	miR-21 FLuc
CN(c1ccc(F)cc1)S(=O)(=O)N1CCCC(C(=O)NCc2cccc(Br)c2)C1 (stereo not given)	19%
CCc1ccc(S(=O)(=O)c2nnn3c2nc(N2CCCC2)c2sccc23)cc1	1%
CCN(CC)CCCNc1ncnc2c1cnn2-c1ccc(C)c(C)c1	-60%
COc1ccc(CNC(=O)CN2C(=O)CC(c3ccc(C)c(C)c3)=Nc3ccccc32)cc1	-66%
Clc1cccc(N2CCN(c3nc4ccccc4n4cnnc34)CC2)c1	-7%
COc1ccc(S(=O)(=O)Nc2cc3c(cc2N2CCOCC2)n(C)c(=O)n3C)cc1	-31%
Cc1ccccc1NC(=O)CSc1nc2c(oc3ccccc32)c(=O)n1-c1ccccc1F	5%
CCOc1ccc(-c2noc(CSc3nnc(Cc4ccccc4)n3-c3cccc(C)c3)n2)cc1	25%
O=C(c1cccn1-c1nnc(N2CCCC2)s1)N1CCN(c2ccccc2)CC1	-3%
O=C(NCc1ccc2c(c1)CCN2C(=O)c1ccc(F)cc1)c1c(F)cccc1F	19%
Cc1cccc2c(=O)cc(CSCC(=O)Nc3ccc(Cl)cc3)[nH]c12	-24%
Cn1c(=S)[nH]c2sc3c(c2c1=O)CCC(C(C)(C)C)C3 (stereo not given)	-54%
O=C(Cc1ccccc1)Nc1sc2c(c1C(=O)Nc1ccccc1Cl)CCCC2	0%
NC(=O)c1c(NC(=O)c2noc3c2CCCC3)sc2c1CCCC2	-60%
COc1ccc(OC)c(NC(=O)C2=C(C)C(=O)OC23CCN(C(C)C)CC3)c1	-1%
CCOCCCN1C(=O)CN(C2CCCCCC2)C(=O)C1c1ccc(OCC)c(OC)c1 (stereo not given)	-21%
Cc1nc(SCc2ccc(Cl)cc2)c(C#N)c(C)c1Cl	6%
COCCNC(=O)CSc1nc(-c2ccc(F)cc2)[nH]c1-c1ccc(Cl)cc1	26%
O=S(=O)(c1ccc(-n2cnnn2)cc1)N1CCN(c2cccc(Cl)c2)CC1	5%
COc1ccc(C(=O)Nc2ccc3nc4c(c(Nc5ccc(OC)c(OC)c5)c3c2)CCCC4)c(OC)c1	-5%
Cc1cccc(C(c2sc3nc(-c4ccco4)nn3c2O)N2CCOCC2)c1 (stereo not given)	1%
COc1ccc(N2CCN(C(=O)c3cccn4c(=O)c5ccc(Cl)cc5nc34)CC2)cc1	-1%
COc1cccc(CNC(=O)C2CCCN(S(=O)(=O)N(C)c3ccc(F)cc3)C2)c1OC (stereo not given)	?
Cc1cccc(NC(=O)c2sc3nc4c(cc3c2N)CCCCCC4)c1C	0%
COc1ccc(Cn2c(CO)cnc2SCc2ccccc2)cc1	-37%
OCCN(CCO)c1ncnc2c1cnn2-c1ccc(F)cc1	-53%
Cc1ccc2onc(CNC(=O)Nc3cc(F)ccc3F)c2c1	6%
COc1ccc(CN(C(=O)Nc2ccc(C)c(F)c2)C2CCN(C(C)=O)CC2)cc1	-14%
Cc1cc(C)c2c(CC(=O)Nc3ccc(S(=O)(=O)Nc4ncccn4)cc3)coc2c1	-7%
COc1ccc(C)c2sc(NC(=O)c3ccc(S(=O)(=O)N4CCCC4)cc3)nc12	8%
CCOc1ccc2c(c1)sc1nc(=O)n(-c3ccc(Cl)c(Cl)c3)c(=O)n12	0%
Cc1ccccc1OCC(=O)Nc1ccccc1OCc1cc(=O)n2ccccc2n1	-7%
Cc1ccc(NC(=O)C2CCCN(c3nnc(-n4c(C)ccc4C)s3)C2)c(C)c1 (stereo not given)	-3%
COc1ccccc1CNC(=O)c1ccc2c(c1)N(Cc1cccc(Cl)c1)C(=O)c1ccccc1S2(=O)=O	-6%
CC(NC(=O)C1CCN(C(=O)c2ccc(-n3ccc4ccccc43)s2)CC1)c1ccccc1 (stereo not given)	-2%
COc1ccc(CNC(=O)Cn2ccc3cc(S(=O)(=O)N4CCCCCC4)ccc32)cc1OC	15%
CCN(CC)S(=O)(=O)c1cccc(C(=O)Nc2ccccc2C(=O)Nc2ccc(OC)cc2)c1	2%
CCc1nn(CC(=O)NC2CC2)c(=O)c2cc3ccccc3n12	-9%
Cn1c(=O)c2c(n3c4ccccc4nc13)NC(=O)CC2c1ccccc1F (stereo not given)	-5%
CNC(=O)CN1C(=O)COc2ccc(S(=O)(=O)N3CCC(C)CC3)cc21	1%
CC(C)Oc1ccc(C(=O)Nc2nnc3n2CCS3)cc1	1%
NNC(=O)c1oc2nc(-c3cccs3)cc(-c3ccco3)c2c1N	14%
Cc1cccc(C(=O)OCc2cc(=O)n3nc(C4CC4)sc3n2)c1	-3%
CCOC(=O)c1cccc(NS(=O)(=O)c2cc(-c3cnc(C4CC4)o3)ccc2C)c1	-17%
COc1cccc(C(=O)c2cn(CC(=O)Nc3cccc(C)c3C)c3nc(C)ccc3c2=O)c1	6%
O=C(Nc1cccc(C(F)(F)F)c1)Nc1nnc(N2CCCCCC2)s1	3%
CC(C)(C)OC(=O)N1CCC(c2c(C(=O)N3CCN(C4CCCCC4)CC3)cnn2-c2cccc(Cl)c2)CC1	15%
Cc1ccc(NC(=O)[C@@H](c2ccccc2)N2Cc3ccccc3C2=O)cc1	3%
COc1cccc(OCc2nc3ccccc3n2CCOc2ccccc2)c1	-28%
Cc1ccc(-c2nn(CC(=O)NC3CCCCC3)c3c2cnc2ccccc23)cc1	-1%
O=C(CCSCc1cccc(Cl)c1)NCc1ccccc1Cl	-4%
CSc1ncc(C(=O)Nc2cc(Cl)ccc2C)c(-c2ccccc2)n1	8%
CCc1nn(CC(=O)N2CCN(c3cccc(Cl)c3)CC2)c(=O)c2cc3sccc3n12	-1%
COc1ccc(-c2cn(-c3ccc(C)cc3)c(S(=O)(=O)CC(=O)Nc3ccc(F)cc3)n2)cc1	-3%
O=C(Nc1ccc(F)c(Cl)c1)C1CCCN(c2ncnc3onc(-c4ccc(F)cc4)c23)C1 (stereo not given)	-1%
O=C(NCc1ccc(Cl)cc1)C(=O)NCC(c1cccnc1)N1CCN(c2ccccc2)CC1 (stereo not given)	-11%
COc1ccc(CNC(=O)Cn2c(=O)nc(-c3ccccc3)c3ccccc32)cc1OC	0%
CCC12CN3CC(C)(CN(C1)C3c1c[nH]c3ccc(OC)cc13)C2=O (stereo not given)	6%
COc1ccc(S(=O)(=O)c2c(Nc3c(C)cccc3C)sc(C(=O)c3ccc4c(c3)OCO4)c2N)cc1	22%
COc1ccc(OC)c(NC(=O)CCCc2nnc3n(C(C)C)c(=O)c4sccc4n23)c1	-3%

(listing goes on)
SMILES	miR-21 FLuc
COc1cccc(C(=O)Nc2cccc(-c3nc4ncccn4c3C)c2)c1	-11%
COC(=O)c1c(SC)nc2ccccc2c1OCc1cc(C)ccc1C	2%
Cc1ccc(-c2nc3n(n2)C(=O)CC(c2ccc(C)cc2)S3)cc1 (stereo not given)	3%
COc1cccc([C@H]2Nc3ccc(S(=O)(=O)Nc4cc(C)ccc4C)cc3[C@H]3C=CC[C@H]32)c1	4%

Of the compounds above, 13 have an aryl thioether with sulfur outside any ring.
SMILES	miR-21 FLuc
O=C(CSc1nc2c(c(=O)[nH]1)CCC2)Nc1ccccc1C(F)(F)F	-1%
CC(=O)Nc1nonc1-c1nnc(SCC(=O)Nc2ccc(F)cc2F)n1-c1ccccc1	-2%
COc1ccccc1NC(=O)CSc1nc(-c2ccccc2F)nc2cc(=O)[nH]n12	-34%
CC(=O)Nc1ccc2nc(SCc3ccccc3)sc2c1	-52%
CCCSc1oc(-c2ccco2)nc1S(=O)(=O)c1ccc(Br)cc1	8%
CCOC(=O)c1ccccc1NC(=O)CSc1cn(CC(=O)N2CCCCC2)c2ccccc12	3%
Cc1ccccc1NC(=O)CSc1nc2c(oc3ccccc32)c(=O)n1-c1ccccc1F	5%
CCOc1ccc(-c2noc(CSc3nnc(Cc4ccccc4)n3-c3cccc(C)c3)n2)cc1	25%
Cc1nc(SCc2ccc(Cl)cc2)c(C#N)c(C)c1Cl	6%
COCCNC(=O)CSc1nc(-c2ccc(F)cc2)[nH]c1-c1ccc(Cl)cc1	26%
COc1ccc(Cn2c(CO)cnc2SCc2ccccc2)cc1	-37%
CSc1ncc(C(=O)Nc2cc(Cl)ccc2C)c(-c2ccccc2)n1	8%
COC(=O)c1c(SC)nc2ccccc2c1OCc1cc(C)ccc1C	2%

Only part of the results is shown (hit frequency here may not be typical).
